From PubChem BioAssay
Rce1 inhib: inhibitors of yeast Ras-converting enzyme; Q03530; yeast membranes, quenched prenylated peptide cleavage fluorescence; calls only; 290,000 compounds, 0.27% hits; AID 2563;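 active = fall in fluorescence gain of 50% or more versus controls, with final raw signal at or below 3038400; inconclusive = same 50% fall but final raw signal above 3038400; inactive = fall in fluorescence gain under 50%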;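 also: plate controls were neutral control wells for no effect and wells lacking membranes for full effect; tested at 10 µM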
Target sequence (Q03530 whole entry, looked up): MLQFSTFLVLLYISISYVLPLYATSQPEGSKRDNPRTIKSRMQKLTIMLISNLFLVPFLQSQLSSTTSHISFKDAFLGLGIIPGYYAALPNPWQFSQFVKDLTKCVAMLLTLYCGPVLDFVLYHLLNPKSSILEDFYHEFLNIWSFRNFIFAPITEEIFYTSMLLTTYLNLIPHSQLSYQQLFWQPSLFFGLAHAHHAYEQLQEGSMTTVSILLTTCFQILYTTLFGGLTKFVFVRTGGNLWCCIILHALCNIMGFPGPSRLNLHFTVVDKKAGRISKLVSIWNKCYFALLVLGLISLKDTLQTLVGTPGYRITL
MT1-MMP act inh: MT1-MMP (human) activation inhibition; P50281; HT1080 RFP-PRO-GFP cells, GFP/RFP ratio fluorescence, overnight; percent of plate control window, DMSO zero; GFP/RFP ratio change, % at 20 µM; 360,000 compounds, 0.061% hits; AID 651647;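 active = GFP/RFP ratio change of at least 30% with cell ATP level not reduced by more than half and red fluorescence within 50% of control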; also: strong numbers were not always called active
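Material – HT1080 RFP-PRO-GFP cells · Control set – DMSO wells and RFP-L50D-GFP cells · Incubation – overnight cell settling, then overnight compound exposure, 37 °C, 5% CO2 · Compound dosing – single-point 20 µM compound, 1% DMSO · Read-out – GFP/RFP fluorescence ratio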
UUG fidelity: yeast start codon fidelity modulation; activity score, % at 18.7 µM; S. cerevisiae UUG-firefly luciferase reporter, luminescence/redox ratio; 350,000 compounds, 0.13% hits;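 active = replicate mean at a twofold rise or more, about +100% in these data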;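 also: firefly luciferase made from a UUG start codon reports start codon fidelity; reporter light over untreated wells divided by growth signal over untreated wells; some hits fall short of that in this replicate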
CSC inhib: cancer stem cell inhibition; 300,000 compounds, 1.1% hits; cancer stem cell-like cells viability, luminescence; inhibition, % at 7.5 µM; AID 2717;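 active = mean at 75% or more and at least half the replicates too; inconclusive = mean and replicates disagree; tested in HMLE shEcad cells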;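 also: 0% = median of negative and 100% = median of positive control wells; the first replicate is given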
PABP FP inh: PABP-poly(A) binding inhibition | PABP-poly(A) RNA binding, fluorescence polarization | inhibition, % at 35 µM | 290,000 compounds, 1% hits;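 active = 50% or more with normal probe brightness, or confirmed in later tests; inconclusive = above 50% with abnormal brightness, or retests that disagree; inactive = below 50% or failed in later tests; about a fifth of its hits are not listed in these tables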;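 also: calls also rest on retests at 20 µM and on dose response follow-up; controls were probe without protein and protein plus probe with vehicle; some compounds called inactive have numbers as strong as hits; many hits fall short of the cut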
Target sequence (P11940 whole entry, looked up): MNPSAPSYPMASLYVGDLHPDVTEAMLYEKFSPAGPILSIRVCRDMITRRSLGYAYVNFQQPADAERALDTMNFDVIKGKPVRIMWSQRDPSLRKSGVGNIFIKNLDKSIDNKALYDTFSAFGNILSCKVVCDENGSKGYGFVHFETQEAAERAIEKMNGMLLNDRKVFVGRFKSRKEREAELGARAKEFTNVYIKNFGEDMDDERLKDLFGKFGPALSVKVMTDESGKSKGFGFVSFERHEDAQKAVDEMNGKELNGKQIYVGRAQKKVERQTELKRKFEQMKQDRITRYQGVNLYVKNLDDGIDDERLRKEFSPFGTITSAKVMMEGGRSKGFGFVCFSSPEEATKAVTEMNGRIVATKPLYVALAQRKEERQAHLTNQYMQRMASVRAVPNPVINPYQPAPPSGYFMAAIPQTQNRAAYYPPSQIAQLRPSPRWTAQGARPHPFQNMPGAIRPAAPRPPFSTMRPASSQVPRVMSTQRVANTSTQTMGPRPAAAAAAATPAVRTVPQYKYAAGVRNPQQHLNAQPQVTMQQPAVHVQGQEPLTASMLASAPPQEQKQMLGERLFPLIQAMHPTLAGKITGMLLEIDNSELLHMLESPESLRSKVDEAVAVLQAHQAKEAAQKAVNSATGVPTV
HIV Env fusion: blocks HIV Env-driven cell-cell fusion. HeLa-JRFL Env/CEM21 cell fusion, luciferase. inhibition, % at 12.3 µM. 360,000 compounds, 1.1% hits;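 active = mean replicate inhibition score of at least 50 and every replicate individually at or above 50; inconclusive = only one of the two criteria met; inactive = mean below 50 and not all replicates reaching 50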;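 also: 0% = plate neutral controls and 100% = maraviroc near 300 nM; one replicate is shown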
eIF4H inh: inhibitors of RNA binding by human eIF4H. eIF4H fluorescence polarization binding assay. inhibition, % at 35 µM. 290,000 compounds, 0.94% hits. AID 2012;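 active = 50% or more with normal probe brightness, or confirmed in later tests; inconclusive = above 50% with abnormal brightness, or retests that disagree; inactive = below 50% or failed in later tests; about a fifth of its hits are not listed in these tables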;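 also: calls also rest on retests at 20 µM and on dose response follow-up; 0% = protein and probe with vehicle and 100% = probe without protein; strong numbers were not always called active; many hits fall short of the cut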
MT1-MMP act inh RFP: recorded beside MT1-MMP act inh, whose call it bears; RFP signal change, %; measured here: RFP expression control read;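 0 = vehicle wells; hits needed this value within 50% of zero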
Starred values were filed as active, the others as inactive; i = inactive; u = inconclusive; x = not tested or not shown; & = joins results of further samples.

SMILES | Rce1 inhib | MT1-MMP act inh | MT1-MMP act inh RFP | UUG fidelity | CSC inhib | PABP FP inh | HIV Env fusion | eIF4H inh
COc1ccc(S(N)(=O)=O)cc1C(=O)NNC(=O)C1COc2ccccc2O1 (configuration not stated) | x | 0 | 0 | -11 | -18 | x | -14 | x
CCCc1nnc(NC(=O)Cn2c(=O)oc3ccccc32)s1 | i | 4 | 7 | -9 | -9 | -4 | x | -4
CN(C)NC1CCS(=O)(=O)C1 (configuration not stated) | i | -5 | -3 | -4 | 7 | 20 | x | -1
CC12/C(=N/O)C3C4CC5C3/C(=N/O)C1C5C42 (configuration not stated) | i | 4 | 5 | -11 | -9 | 8 | x | 6
Cc1nnc(NC(=O)C2CCN(S(=O)(=O)c3ccc(F)c(F)c3)CC2)o1 | x | -1 | 0 | -20 | -5 | x | -14 | x
COc1cc(OC)cc(C(=O)NCCC(=O)NCCc2ccc(OC)c(OC)c2)c1 | i | -3 | 0 | x | 3 | -10 | -10 | -6
Cc1ccc(C)c2[nH]c(=O)c(CCNC(=O)c3ccco3)cc12 | i | -2 | 3 | x | 2 | -2 | -13 | 0
O=C(COc1cc2oc(=O)c3c(c2cc1Cl)CCCC3)N1C[C@H]2C[C@@H](C1)c1cccc(=O)n1C2 | i | -1 | -1 | 3 | -12 | -1 | x | 3
CC1(C(=O)Nc2cnc3ccccc3c2)CCN1Cc1ccc2ccccc2c1 (configuration not stated) | x | 0 | -4 | -10 | x | x | 28 | x
C=CCn1c(N)c(C(=O)Nc2cccc(C)c2)c2nc3ccccc3nc21 | i | -7 | 2 | -13 | 25 | 29 | -51 | 20
COc1cc(C)c(C#N)c(OC)n1 | i | -4 | -2 | -4 | 9 | 1 | x | 2
COc1ccccc1CNC(=S)NCc1ccc(F)cc1 | i | -2 | 2 | -22 | -21 | 4 | -5 | 1
O=C(C[C@H]1C[C@@H]2c3cc(NS(=O)(=O)c4ccccc4)ccc3O[C@@H]2[C@H](CO)O1)N1CCOCC1 | x | 3 | 5 | 21&-4 | x | x | 6 | x
CCN(Cc1ccccc1)C(=O)CSc1nc(C)cc(C)c1C#N | i | 0 | 1 | 10 | 1 | -8 | -8 | -8
CCOC(=O)N1CCN(C(=O)COc2ccc(Cl)cc2C)CC1 | i | 1 | 0 | x | -23 | 2 | x | -6
CCn1c(Cc2cccs2)nnc1SCC(=O)c1ccc(C)cc1 | i | 4 | 1 | -16 | 30 | -4 | -28 | 0
O=C(Nc1ccc2oc(-c3ccccc3)nc2c1)C1CCCO1 (configuration not stated) | u | 0 | 2 | x | -2 | 0 | -60 | -1
CCOc1ccc(CCNC(=O)COC(=O)COc2ccc(C(=O)CC)cc2)cc1OCC | i | 0 | 0 | x | x | x | -6 | x
Cc1ccc(C)c(NC(=O)C2=CCN(S(=O)(=O)c3ccc(F)cc3)CC2)c1 | i | -2 | -3 | -8 | -4 | -2 | -44 | 2
CC(=O)Nc1ccc(-c2noc(-c3csc([C@@H]4C[C@H](O)[C@@H](CO)O4)n3)n2)cc1 | x | -1 | 3 | -4 | x | x | -17 | x
Cc1cccc(NC(=O)c2cc(NC(=O)C3CC=CCC3C(=O)O)ccc2N2CCOCC2)c1 (configuration not stated) | i | 3 | 10 | 23 | -1 | -5 | 21 | 5
O=C(Cn1cnc2c(nnn2Cc2ccccc2F)c1=O)NCC1CCCO1 (configuration not stated) | i | -4 | -2 | -9 | -8 | -3 | x | -2
Cc1nc2ncnn2c(N2CCCC(C(=O)Nc3ccc4c(c3)CCC4)C2)c1C (configuration not stated) | i | -3 | -16 | -15 | 9 | 4 | 78* | -6
O=C(OCc1nnc(-c2ccccc2)o1)c1ccc2ccccc2n1 | i | 4 | 6 | -17 | 10 | -4 | x | 2
CN1CCN(CC(=O)Nc2cc(N3CCOCC3)ccc2[N+](=O)[O-])CC1 | i | -6 | 4 | x | -5 | -6 | -38 | 11
COc1ccc(CCN2Cc3c(cccc3[N+](=O)[O-])C2=O)cc1OC | i | 4 | 2 | -8 | 4 | 1 | 2 | -7
CCCCN(CC)Cc1ccc(CNC(=S)Nc2cccc(F)c2)o1 | i | -5 | -12 | 5 | -2 | -1 | 22 | -3
C=CCNC(=O)CC1C(=O)NCCN1Cc1c(F)cccc1Cl (configuration not stated) | i | 2 | 5 | x | 0 | -6 | -10 | -17
C=CC[C@@H](CC(=O)N(CCO)Cc1ccccc1)C(=O)N[C@@H](C)COC(=O)[C@@H](CC=C)Cc1ccc(F)cc1 | x | 0 | -12 | 8 | x | x | -25 | x
COCCNC(=O)[C@@]1(C)C=C[C@@H](Cc2ccccc2)N1C(=O)c1ccccc1 | i | 1 | 6 | 12 | -18 | 6 | -34 | 10
CSC1=C(C#N)C(c2ccncc2)C(C(=O)Nc2ccccc2)=C(C)N1 (configuration not stated) | i | -3 | -8 | -29 | -4 | -17 | 30 | -4
Cc1ccc(NC(=O)CSc2nnc(CNC(=O)c3ccccc3F)o2)cc1Cl | i | 4 | 4 | -17 | 7 | 6 | -9 | -11
COc1ccccc1NC(=O)[C@@H]1CCCN1S(=O)(=O)c1ccc(Cl)cc1 | x | -3 | 0 | -3 | -12 | x | x | x
CCc1ccc(C(=O)CN2C(=O)NC(C)(CCc3ccccc3)C2=O)cc1 (configuration not stated) | i | -3 | -2 | 9 | x | 14 | 8 | -4
COc1ccccc1CCC(=O)Oc1ccc(C#N)cc1OC | i | 0 | 1 | -9 | x | 9 | -40 | -5
Cc1ccc(CNC(=O)N2CCN(S(=O)(=O)c3ccccc3)CC2)cc1 | i | -1 | -2 | -18 | -11 | -8 | -7 | 5
COc1ccc(-c2nc(CN(C)C(C)c3ccon3)c(C)o2)c(C)c1C (configuration not stated) | i | 1 | -1 | -13 | -14 | -3 | 0 | -6
CCC1=NN(C(=O)c2ccc([N+](=O)[O-])cc2)C(O)(c2ccccc2)C1 (configuration not stated) | i | 3 | 0 | -25 | 21 | 9 | 25 | -2
Cc1cc(NC(=S)NC(=O)C2CC2)ccc1Br | i | 7 | -3 | -21 | 12 | 2 | -30 | -18
O=C(CCC(=O)n1ncc2ccccc21)NCc1ccccc1Cl | i | -1 | 5 | -8 | x | 7 | -1 | -5
COc1ccc(CN(C)Cc2nc3cc(OC)c(OC)cc3c(=O)[nH]2)c(OC)c1 | i | -4 | -3 | x | 1 | 6 | -9 | -1
O=C(/C=C/c1ccccc1)Nc1ccc(C(=O)N2CCCCC2)cc1 | i | 3 | 0 | x | -6 | 1 | 16 | -8
Cc1nn(CCOc2ccccc2)c(=O)n1-c1ccc(F)cc1 | i | 7 | 2 | -10 | -6 | 5 | -31 | 6
COc1ccc(NC(=O)N2CCCC(C(=O)Nc3cccc(C)c3C)C2)cc1 (configuration not stated) | i | 0 | 0 | x | -10 | 10 | 12 | -1
COc1ccc(-c2ccc(CN3C(CC(C)C)C(=O)N(Cc4cn(CCC5OCCO5)nn4)CCS3(=O)=O)cc2)cc1OC (configuration not stated) | x | -3 | 4 | 2 | x | x | 15 | x
Cc1ccc(NC(=O)CC2NCCNC2=O)cc1Cl (configuration not stated) | i | -7 | 2 | x | -10 | 12 | -67 | -2
CC1CCC/C(=N/Nc2nc3ccccc3s2)C1 (configuration not stated) | i | 2 | 6 | x | -3 | -5 | -43 | -5
CCn1cc(CCC(=O)NCCN2CCOCC2)c2ccccc21 | i | -1 | 0 | -7 | 3 | -10 | 13 | -9
COc1ccc(C(=O)CN2C(=O)c3ccccc3S2(=O)=O)cc1 | i | 0 | 0 | -8 | -5 | 3 | 72* | 6
Cn1cnc(S(=O)(=O)N2CCN(c3ccc(Cl)cc3)CC2)c1 | i | 1 | 8 | -24 | -3 | 11 | 12 | 2

(list continues)
SMILES | Rce1 inhib | MT1-MMP act inh | MT1-MMP act inh RFP | UUG fidelity | CSC inhib | PABP FP inh | HIV Env fusion | eIF4H inh
O=C(CCl)NN1C(=O)NC(c2ccccc2)(c2ccccc2)C1=O | i | -1 | -1 | -3 | 17 | -8 | -32 | -13
CCCC1C(=O)N2C(N(C)C)=Nc3ccc(C)cc3N2C1=O (configuration not stated) | x | 3 | 6 | -24 | -15 | x | 8 | x
Cc1cc(C)cc(OC(C)C(=O)Nc2ccc3c(c2)n(C)c(=O)n3C)c1 (configuration not stated) | i | 3 | 2 | -8 | -7 | 32 | -9 | 1
COCCCN(C(=O)Cc1coc2cc(C)c(C)cc12)c1c(N)n(Cc2ccccc2)c(=O)[nH]c1=O | i | -6 | 1 | x | -12 | x | 8 | x
Cc1cc(C(=O)N/N=C/c2cc(Br)c(Br)o2)n[nH]1 | i | 3 | 2 | -32 | x | 10 | -6 | 7
CCOC(=O)c1c(NC(=O)CSc2nncs2)sc(C)c1C | i | -1 | -2 | x | -3 | -6 | x | 0
COc1cc(C(=O)Nc2ccc3c(c2)OCO3)ccc1-n1cnnn1 | i | 1 | -2 | -1 | 2 | -1 | 8 | 0
Cc1cc(Br)ccc1OCc1nc(-c2cccnc2)no1 | i | -5 | -11 | -16 | -5 | -2 | -37 | -8
O=C(COC(=O)c1ccccc1)NCC1COc2ccccc2O1 (configuration not stated) | x | 3 | 6 | 0 | x | x | 18 | x
O=C(NNC1CC(=O)N(c2ccccc2)C1=O)c1ccc(COc2ccccc2Cl)o1 (configuration not stated) | x | -3 | 1 | x | -5 | 3 | 1 | 20

Record cards, as listed above.
Cc1nn(CCOc2ccccc2)c(=O)n1-c1ccc(F)cc1 in the list: Rce1 inhib: i; MT1-MMP act inh: 7; MT1-MMP act inh RFP: 2; UUG fidelity: -10; CSC inhib: -6; PABP FP inh: 5; HIV Env fusion: -31; eIF4H inh: 6
O=C(NNC1CC(=O)N(c2ccccc2)C1=O)c1ccc(COc2ccccc2Cl)o1 (configuration not stated) in the list: Rce1 inhib: x; MT1-MMP act inh: -3; MT1-MMP act inh RFP: 1; UUG fidelity: x; CSC inhib: -5; PABP FP inh: 3; HIV Env fusion: 1; eIF4H inh: 20
Cc1nnc(NC(=O)C2CCN(S(=O)(=O)c3ccc(F)c(F)c3)CC2)o1 in the list: Rce1 inhib: x; MT1-MMP act inh: -1; MT1-MMP act inh RFP: 0; UUG fidelity: -20; CSC inhib: -5; PABP FP inh: x; HIV Env fusion: -14; eIF4H inh: x

Later entries.
SMILES | Rce1 inhib | MT1-MMP act inh | MT1-MMP act inh RFP | UUG fidelity | CSC inhib | PABP FP inh | HIV Env fusion | eIF4H inh
Cc1noc(C)c1CSc1nnc(-c2ccccc2)n1Cc1ccco1 | i | 5 | 3 | -14 | x | 0 | x | 6
CN(C)/C=C/C(=O)c1ccc([N+](=O)[O-])c(CS(=O)(=O)c2ccc(Cl)cc2)c1 | i | -1 | 0 | -7 | 2 | -13 | -8 | -3
CCCCCC(=O)Nc1ccc(S(=O)(=O)Nc2ccc(Cl)nn2)cc1 | i | 5 | 7 | -3 | 5 | 13 | 30 | -3
COc1ccccc1C(=O)COC(=O)c1ccc(Cl)nc1 | x | 0 | 2 | -8 | -1 | x | x | x
Clc1ccc(-c2cc3ccccc3nc2N2CCCC2)cc1 | i | -3 | -3 | -1 | 28 | -12 | x | -18
NC(=O)CC(NC(=O)c1ccccc1)c1ccc(NCc2ccc(F)cc2)c([N+](=O)[O-])c1 (configuration not stated) | i | 0 | -12 | -9 | 19 | -3 | 8 | 0
C=CCn1c(SCC(=O)NC2CCCC2)nnc1-c1ccncc1 | i | 1 | 2 | -11 | -5 | -1 | -2 | -11
CCOC(=O)c1sc(-c2ccccc2)cc1NC(=O)c1ccc(S(=O)(=O)N(CCOC)CCOC)cc1 | i | -9 | -3 | x | -1 | 18 | -60 | -4

This is a subset; rates above refer to the full screens.
